VDR inhibitor – vitamin D3 receptor (human) inhibition; AID 504847; Potency, µM, for inactives: max response, negative = inhibition, actives largely listed as inhibitors; VDR-SRC2-3 peptide fluorescence polarization, 2 h; actives 0.93% (n = 400,000); P11473; active means well fitted inhibition curve with a large enough effect; inconclusive means small, poorly fitted or top-dose-only effect, or another doubt; inactive means no such curve, though single readings can be large or run the other way; further: series mostly up to about 120 µM
Target sequence (P11473 whole entry, looked up): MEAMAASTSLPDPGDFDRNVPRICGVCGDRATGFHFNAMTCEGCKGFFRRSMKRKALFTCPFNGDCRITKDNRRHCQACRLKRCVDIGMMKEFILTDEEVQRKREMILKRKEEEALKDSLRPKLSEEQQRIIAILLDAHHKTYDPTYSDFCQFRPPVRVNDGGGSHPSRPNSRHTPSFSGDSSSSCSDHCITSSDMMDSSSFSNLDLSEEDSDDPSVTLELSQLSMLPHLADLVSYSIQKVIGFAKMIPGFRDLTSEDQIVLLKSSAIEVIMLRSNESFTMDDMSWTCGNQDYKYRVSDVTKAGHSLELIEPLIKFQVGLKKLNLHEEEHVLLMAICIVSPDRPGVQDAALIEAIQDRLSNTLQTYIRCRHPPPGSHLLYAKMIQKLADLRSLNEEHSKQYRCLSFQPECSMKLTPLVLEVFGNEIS
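VDR–SRC2-3 interaction, FP format. Cmpds 23 nl via pintool, brief spin, 2 h ambient incubation.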
* = called active by the depositor; ? = inconclusive; & = joins results of further samples. On the % scale 0 is the no-effect control and ±100 the full control effect; potency means the concentration at half of the fitted maximal effect. An excerpt, so the mix of outcomes need not match the whole.

Molecule | VDR inhibitor
CCc1ccc(NC(=O)CSc2nc3ccccc3c(=O)n2CCCC(=O)NCCCN2CCOCC2)cc1 | 5%
CCCCn1nnnc1SCC(=O)c1ccccc1F | 14%
CC(C)C(NC(=O)CN(c1ccc2c(c1)OCCO2)S(=O)(=O)c1ccccc1)C(C)C | -5%
CCN(CCO)C1CC(=O)N(c2ccccc2C)C1=O (centres undefined) | -8%
O=C(O)c1cccc(NC(=O)c2ccc(COc3ccc(Cl)cc3)cc2)c1 | 3%
CCCN(C(=O)c1cnccn1)c1c(N)n(Cc2ccccc2)c(=O)[nH]c1=O | -6%
O=C(CSc1ccccc1)N1CCCC(N2CCN(c3ccccc3)CC2)C1 (centres undefined) | -2%
COc1cccc(-c2cc(C(=O)N/N=C/c3cccc(OC)c3OC)c3ccccc3n2)c1 | -18%
CC(=O)N1c2ccc(S(=O)(=O)Nc3ccc(Cl)cc3C)cc2CC1C (centres undefined) | -7%
N#Cc1ccccc1-c1ccc2ncnc(NCCN3CCOCC3)c2c1 | -19%
c1ccc(C2Oc3ccccc3C3CC(c4cccs4)=NN32)cc1 (centres undefined) | 5%
COC(=O)c1ccccc1NC(=O)N1CCN(C(=O)c2ccco2)CC1 | -25%
COc1ccc(-n2c(=S)[nH]c3cc(C(=O)Nc4cc(C(N)=O)ccc4OC)ccc3c2=O)c(OC)c1 | 20%
CCOC(=O)c1c(NC(=O)COc2ncnc3ccccc23)sc(C)c1C | 20%
COc1ccc(-c2noc(CCCCC(=O)N3CCN(c4cc(C)ccc4C)CC3)n2)cc1 | -9%
COc1cc2c(cc1OC)-c1cc(Nc3ccc(N(C)C)cc3)nc(=O)n1CC2 | -17%
O=C(CNC(=O)/C(=C\c1ccc(Br)cc1)NC(=O)c1ccccc1)OCc1ccccc1 | -8%
O=C(C1CCCN(S(=O)(=O)c2ccccc2)C1)N1CCN(c2ncccn2)CC1 (centres undefined) | -7%
N#C/C(=C\c1ccco1)Sc1nc2ccccc2s1 | -18%
Cc1noc(C(=O)Nc2ccc(F)cc2F)c1Cl | -12%
CCOc1ccc(OCCNC(=O)c2oc3ccccc3c2COC)cc1 | -14%
O=C(c1ccccn1)N1CCN(c2ccc(C(F)(F)F)cn2)CC1 | 1%
Cc1ccccc1NC(=O)CCN1CCN(C/C=C/c2ccccc2)CC1 | 0%
CSc1nc2ccccc2n1C(=O)NC1CCCCC1 | -1%
COc1cccc(-n2nnc3c(=O)n(CC(=O)NC4CCCC4)cnc32)c1 | 6%
O=C(/C=C/c1ccco1)NC(=S)NNC(=O)c1ccco1 | -7%
Cc1nc2scc(C)n2c(=O)c1S(=O)(=O)N1CCN(c2ccc(F)cc2)CC1 | -6%
O=C(NCc1ccccn1)c1ccc2c(=O)n(CCc3ccccc3)c(=O)[nH]c2c1 | 8%
O=C1CSC(c2ccccn2)N1c1cccc(Cl)c1 (centres undefined) | 9%
Cc1cc(-c2nn(-c3ccccc3F)cc2CN2CCC(O)CC2)c(C)s1 | -11%
CCOc1ccc(N(CC(=O)NCC2CCCO2)S(=O)(=O)c2ccc(SC)cc2)cc1 (centres undefined) | -13%
COc1cc(/C=C(/NC(=O)c2ccccc2)C(=O)Nc2ccccc2)c([N+](=O)[O-])cc1OC | -10%
CC(=O)N=c1cccc(NC(C)=O)n1O | 12%
COc1ccc(C(=O)N2CCN(C(C)=O)CC2)cc1S(=O)(=O)N1CCOCC1 | 14%
Cc1ccc(N2CC(C(=O)N3CCc4ccccc43)CC2=O)cc1 (centres undefined) | 1%
Cc1cc(SCC(=O)c2ccccc2)n2ncc(-c3ccccc3)c2n1 | -3%
CS(=O)(=O)c1ccc(Cl)c(NC(=O)CSc2nc3ccccc3c(=O)n2CCCN2CCOCC2)c1 | -1%
COc1ccc(CCn2c(-c3cccc([N+](=O)[O-])c3)nc3nc4ccccc4nc32)cc1 | 5%
c1ccn2c(Cc3nnc4ccccn34)nnc2c1 | 6%
Cc1sc2ncn(CC(=O)N3CCN(c4ccccn4)CC3)c(=O)c2c1S(=O)(=O)N1CCC(C)CC1 | 6%
O=c1oc2ccccc2nc1/C=C(O)/C=C/c1ccc(F)cc1 | -26%
CCn1c(SCc2nc3ccccc3s2)nnc1-c1ccccc1 | 14%
Cc1cccc(NC(=O)Cn2c(=O)n(-c3ccccc3Cl)c(=O)c3c(C)c(C(=O)N(C)C)sc32)c1 | 3%
CCCn1c(N2CCN(Cc3ccc(Cl)cc3)CC2)nc2ccccc21 | -11%
O=C(COC(=O)C12CC3CC(CC(Br)(C3)C1)C2)Nc1ccc2[nH]c(=O)[nH]c2c1 | 10%
O=C(COC(=O)c1ccc(O)cc1O)NNC(=O)c1cccs1 | -12%
COC(=O)c1ccc(NS(=O)(=O)c2ccc(OC)cc2)cc1 | 7%
COc1ccc(NC(=S)N2CCC(C(=O)c3ccc(F)cc3)CC2)c(OC)c1 | -4%
O=C(c1ccc(COc2ccccc2Cl)o1)N1N=C(C(F)F)CC1(O)C(F)F (centres undefined) | -25%
Clc1ccccc1SCc1nc2ccccc2[nH]1 | -9%

More structures.
Molecule | VDR inhibitor
Cc1cc(NC(=O)COC(=O)c2cc(S(=O)(=O)N(C)c3ccccc3)ccc2Cl)no1 | 0%
O=C(c1cccc(F)c1)N1CCC(c2c[nH]c3ccccc23)(c2c[nH]c3ccccc23)CC1 | 10%
Cc1c(Cl)cccc1NC(=O)CSc1ncnc2c1cnn2CCc1ccccc1 | 4%
Nc1ccc(N=Nc2ccc(N)cc2)cc1 | 1%
CC1CN(CCCCOc2ccc(F)cc2)CC(C)O1 (centres undefined) | 0%
COc1ccc(OC)c(NC(=O)c2cc3cc(C)ccc3n2C)c1 | 10%
Cc1ccc(S(=O)(=O)N(Cc2ccccc2F)C(=O)N2CCN(C)CC2)cc1 | -21%
Cc1c(C(=O)NCc2ccccc2Cl)sc2nc3n(c(=O)c12)CCCC3 | 15%
Cc1ccc(-c2nc3ncccn3c2NC2CCCC2)o1 | -17%
Cc1nn(Cc2ccc(Cl)cc2)c2sc(C(=O)OCC(N)=O)cc12 | 6%
O=C(Nc1ccc2c(c1)OCO2)NC1(C(F)(F)F)Oc2ccccc2O1 | -1%
C[C@H]1CN([C@@H](C)CO)C(=O)c2cc(NC(=O)C3CCCCC3)ccc2O[C@H]1CN(C)S(=O)(=O)c1ccccc1 | -8%
COc1cc(C2SCC(=O)N2Cc2ccccc2)cc(OC)c1OC (centres undefined) | -15%
Fc1ccc(-c2cnc3n2CCCCC3)cc1 | 11%
C[C@@H]1CN([C@@H](C)CO)C(=O)c2cccc(NC(=O)c3ccncc3)c2O[C@@H]1CN(C)Cc1ccc(-c2ccccc2)cc1 | -10%
COc1ccc(NC(=O)/C(=C/c2ccc3c(c2)OCO3)NC(C)=O)cc1 | -4%
Cc1cccc(C)c1NC(=O)CSc1nc2ccccc2c(=O)[nH]1 | -3%
FC(F)(F)C(F)(F)C(F)(F)C(F)(F)C(F)(F)C(F)(F)F | 1%
COc1ccc(C(=O)NC(c2ccccc2Cl)c2cc(Cl)c3cccnc3c2O)cc1 (centres undefined) | -12%
CCCCCCCNS(=O)(=O)c1cccc2c(Cl)cccc12 | -4%
CCCCn1c(N)c(N(CCC(C)C)C(=O)Cc2ccc(S(=O)(=O)N3CCOCC3)s2)c(=O)[nH]c1=O | -18%
Cc1cccc(C(=O)N2CCc3c([nH]c4ccccc34)C2CC(C)C)n1 (centres undefined) | 10%
O=C(NCCCN1CCCC1)c1cc(Sc2ccc(F)cc2)nc2ccccc12 | 0%
CCCCn1c(-c2ccsc2)nc2c1c(=O)[nH]c(=O)n2CCC | ?
CCCCN1C(=N)N([C@@H](CCC)CN2CCC[C@H]2CN2C(N)=NC[C@H]2CC(C)C)C[C@H]1Cc1ccccc1 | 12%

Four records picked at random from the list so far, as already listed:
Molecule | VDR inhibitor
FC(F)(F)C(F)(F)C(F)(F)C(F)(F)C(F)(F)C(F)(F)F | 1%
COc1ccc(NC(=O)/C(=C/c2ccc3c(c2)OCO3)NC(C)=O)cc1 | -4%
COc1cc(C2SCC(=O)N2Cc2ccccc2)cc(OC)c1OC (centres undefined) | -15%
Cc1cccc(C(=O)N2CCc3c([nH]c4ccccc34)C2CC(C)C)n1 (centres undefined) | 10%

(more compounds)
Molecule | VDR inhibitor
Cc1c(C(=O)N(C)Cc2ccccc2)oc2c(Cl)cccc12 | -17%
COc1cc(C2c3c(-c4c(C)cc(C)cc4O)n[nH]c3C(=O)N2CCO)cc(OC)c1OC (centres undefined) | -9%
CCCC(NC(=O)COc1cc2c(c3oc(=O)c(C)c(C)c13)CCC(C)(C)O2)C(=O)O (centres undefined) | -6%
CCc1ccc2[nH]c(=O)c(CN(Cc3ccc(OC)cc3)Cc3nnnn3CCOC)cc2c1 | 11%
CC(C)Oc1ccc(NC(=O)C2CCCNC2=O)cc1 (centres undefined) | -4%
CCN(CC)CCNC(=O)CNC(=S)N(CCCN1CCOCC1)Cc1cccs1 | -5%
CC1Cc2ccccc2N1C(=O)CSC1=NCCS1 (centres undefined) | 71µM*
O=C(N/C(=C/c1ccc(Br)cc1)C(=O)N1CCCC1)c1cccs1 | -3%
COc1ccc(-c2ccc(NS(=O)(=O)c3ccccc3Cl)cc2)nn1 | 16%
COc1cc(C)ccc1OCCOc1c(C)cc(Cl)cc1Cl | -21%
O=c1c2ccccc2ncn1-c1cccc(Br)c1 | 14%
CCc1nn(CC(=O)NCCCN2CCN(C)CC2)c(=O)c2cc3occc3n12 | 1%&2%
COc1cccc(-c2nc3n(n2)C(c2ccccc2Cl)C(C(N)=O)=C(C)N3)c1 (centres undefined) | 2%
Fc1ccccc1CSc1nnc2ccc(-c3ccncc3)nn12 | 9%
Cc1ccc(NC(=O)CN(C)CC(=O)Nc2ccccc2C#N)cc1 | -2%
COc1nnc(-c2ccc(N3CCCCC3)c(N)c2)c2ccccc12 | -1%
O=S1(=O)[C@H]2C[C@@H]3C=C[C@]2(CN1Cc1ccc(C(F)(F)F)cc1)O3 | -21%
CCCCNC(=O)CSC1=Nc2ccccc2C2=NC(CCC(=O)NCc3ccccc3OC)C(=O)N12 (centres undefined) | 12%
CCc1nnc(-n2nc(C)cc2-c2ccccc2)n1N | 9%
CC(C)(C)n1nnnc1C(c1cccs1)N1CCCC2(CCCCC2)C1 (centres undefined) | 6%
CS(=O)(=O)N(CC(=O)Nc1ccc(Br)cc1F)C1CCCCC1 | 8%
COc1ccc(Nc2ncnc3sccc23)cc1 | 2%
COc1ccc(C2/C=C\CN(CC(C)C)CC(=O)N2Cc2cccc(F)c2)cc1 (centres undefined) | ?
CCOC(=O)c1ccc(NS(=O)(=O)c2c(C)nc3sccn3c2=O)cc1 | -20%
Cc1ccc2occ(CN3CCN(c4ccccc4)CC3)c(=O)c2c1 | -6%
Cc1nc2nc(-c3ccccc3)nn2c(C)c1C | 3%
CN(CC(=O)Nc1ccccc1Cl)C(=O)COC(=O)C1=COCCO1 | -4%
CCOc1ccc(CN(Cc2ccco2)C(c2cccs2)c2nnnn2C(C)(C)C)cc1 (centres undefined) | 13%
CC1CCC/C(=C\Nc2ccc(C(=O)O)cc2)C1=O (centres undefined) | -9%
O=C(Cn1nc(-c2ccccc2)ccc1=O)NCC1CCCO1 (centres undefined) | -4%
CN(C)c1ccc(-n2cc3c(=O)n(C)c(=O)n(C)c3c2)cc1 | 6%
COc1ccc(C(=O)C(C)OC(=O)CCN2C(=O)C3CC=CCC3C2=O)cc1 (centres undefined) | -15%
C=CCn1c(=O)/c(=C2/SC(C)=C(C)N2CC)s/c1=C1/C(=O)N(CC)C(=S)N1c1ccccc1 | 13%
Cc1ccc2nc(N(CCCN(C)C)C(=O)CS(=O)(=O)c3ccccc3)sc2c1 | -11%
Cc1ccccc1NC(=O)c1ccc(C)c(S(=O)(=O)Nc2cccnc2)c1 | 4%
COc1ccc(S(=O)(=O)N2CCCC(C(=O)NCC3CCCO3)C2)cc1Cl (centres undefined) | -2%
CC(C)N(C(=O)Cn1cc(S(=O)(=O)CC(=O)NC2CCCCC2)c2ccccc21)C(C)C | -10%
O=C1C=CC(=O)N1c1ccc(O)cc1 | 25µM*
Cc1ccccc1N(C)S(=O)(=O)c1nnc(NC(=O)c2ccccc2F)s1 | 12%&-2%
CSCCC(NC(=O)c1ccco1)C(=O)NCCc1ccc(F)cc1 (centres undefined) | -1%
CCC(CC)C(=O)N1CCc2cc(OC)c(OC)cc2C1COc1ccccc1OC (centres undefined) | -8%
CCSC1=C(C#N)C(c2cccc(Br)c2)CC(=O)N1 (centres undefined) | -8%
CN(C)CCNc1cc(-c2ccncc2)nc2ccccc12 | -10%
O=[N+]([O-])c1cccc(-c2ccc(C(=S)N3CCN(c4ccc(F)cc4)CC3)o2)c1 | -4%
Cc1c(NC(=O)c2ncn[nH]2)cccc1-c1nc2ccccc2s1 | -8%
COC(=O)C1CCN(C(=O)c2ccc3nc(-c4cccc(OC)c4)oc3c2)CC1 | -21%
CCC(=O)N1c2nc(C(C)C)nn2C2(CCCCC2)[C@@H]2CCCC[C@@H]21 | 5%

An excerpt from above in order of their number in VDR inhibitor, high to low.
Molecule | VDR inhibitor
Cc1ccccc1NC(=O)c1ccc(C)c(S(=O)(=O)Nc2cccnc2)c1 | 4%
Cc1ccc2nc(N(CCCN(C)C)C(=O)CS(=O)(=O)c3ccccc3)sc2c1 | -11%
COC(=O)C1CCN(C(=O)c2ccc3nc(-c4cccc(OC)c4)oc3c2)CC1 | -21%
